Assay outcomes as filed in PubChem.
Ecoli growth: E. coli growth inhibition, primary screen, OD600; OD600 absorbance (concentration not given with the values); Escherichia coli growth, 23 h; active compounds read low; hit rate 0.21% among 330,000;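 active = OD600 absorbance below the run mean of sample wells minus 3.6 SD, in any replicate, cut at about 0.56 in these data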;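 note: stock transfer was 300 nL into about 60 µL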
LANA-H2B inh: blockers of LANA interaction with H2A/H2B – biochemical, FP readout, HTS, primary screen | cell-free LANA-H2A/H2B peptide, fluorescence polarization | hit rate 0.6% among 320,000 | Protein LANA1 (Human herpesvirus 8 type P (isolate GK18)), Q9QR71 | AID 2629, 2010 | inhibition, % (concentration not given with the values); in the data active = inhibition mostly above about 10%, no sharp cut-off; inactive = mostly below about 6.7%;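 note: stock transfer was 7.5 nL into about 10 µL; 0% = median of vehicle wells and 100% = median of positive control wells; one replicate is shown; the record names a cut of 25% in any replicate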
HNF4A DNA FP: change in binding of human HNF4A to DNA, primary screen, biochemical, fluorescence polarization, FITC-DNA. activity change, % at 10 µM. hit rate 0.3% among 360,000. 1 h; in the data active = activity change above about 30%, passing the limit was not always enough;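 note: controls were the assay level and a saturating level of protein; the project sought stronger binding though the title names inhibitors; some compounds called inactive have numbers as strong as hits; positive values seem to mean higher polarization but the record does not say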
Target sequence (P41235 whole entry, looked up): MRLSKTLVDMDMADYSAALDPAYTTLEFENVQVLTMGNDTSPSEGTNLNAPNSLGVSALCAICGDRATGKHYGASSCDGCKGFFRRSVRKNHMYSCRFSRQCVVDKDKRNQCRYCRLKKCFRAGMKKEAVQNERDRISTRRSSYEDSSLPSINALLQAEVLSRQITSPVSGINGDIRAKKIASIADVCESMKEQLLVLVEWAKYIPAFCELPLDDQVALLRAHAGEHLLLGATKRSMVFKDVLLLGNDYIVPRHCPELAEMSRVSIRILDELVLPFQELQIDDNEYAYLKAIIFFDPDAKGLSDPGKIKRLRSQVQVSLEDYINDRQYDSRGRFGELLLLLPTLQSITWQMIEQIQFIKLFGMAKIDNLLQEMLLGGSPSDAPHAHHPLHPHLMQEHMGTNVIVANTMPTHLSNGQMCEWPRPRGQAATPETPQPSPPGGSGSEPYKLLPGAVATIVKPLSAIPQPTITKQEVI
UCH37 DUB inh: inhibitors of human UCH37 deubiquitinase, primary screen, biochemical, Ub-AMC cleavage, fluorescence | Ubiquitin carboxyl-terminal hydrolase isozyme L5 (Homo sapiens), Q9Y5K5 | purified proteasome/UCH37 | inhibition, % (no concentration beside the values) | hit rate 0.33% among 330,000;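 active = mean of two replicates above 20%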;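 note: 0% = compound-free wells with enzyme and 100% = wells lacking proteasome; stock transfer was 100 nL into about 20 µL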
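Material: Human UCH37 enzyme supplied as purified proteasome complex | Schedule: 30 min preincubation with enzyme, 25 min cleavage at room temperature | Detection: AMC fluorescence 355/460 nm | Measure: % inhibition of Ub-AMC cleavage fluorescence | Controls: Wells without proteasome as full block, compound-free enzyme plus substrate as uninhibited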
ALR H2O2 inh: inhibitors of human ALR sulfhydryl oxidase, primary screen, biochemical, H2O2 detection, HRP-luminol luminescence, single point. inhibition, % (concentration not given with the values). FAD-linked sulfhydryl oxidase ALR (Homo sapiens), P55789. purified ALR, DTT oxidation. hit rate 3.8% among 290,000. AID 485317, 2010;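 active = mean and each replicate at 75% or more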;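 note: stock transfer was 7.5 nL into about 7.5 µL; 0% = neutral wells and 100% = wells with inactivated enzyme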
Target sequence (P55789 whole entry, looked up): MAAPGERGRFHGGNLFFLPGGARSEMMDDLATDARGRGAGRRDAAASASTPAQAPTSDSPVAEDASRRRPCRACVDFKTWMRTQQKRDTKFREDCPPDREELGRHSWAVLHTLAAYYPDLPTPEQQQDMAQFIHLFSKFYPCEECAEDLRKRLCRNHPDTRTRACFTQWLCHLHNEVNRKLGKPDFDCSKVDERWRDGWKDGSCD
FGF22 binding: binders of human FGF22 protein, primary screen, FGF22 synaptogenesis inhibitor project, biophysical, thermal shift, single point; Fibroblast growth factor 22 (Homo sapiens), Q9HCT0; recombinant FGF22 thermal shift, SYPRO orange fluorescence; percent of sucrose octasulfate shift, DMSO zero; calls only at 9.99 µM; hit rate 1.5% among 340,000; AID 651658, 2012;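 active = melting point raised past a set limit in the mean and every replicate; three in four hits are not shown here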
Target sequence (Q9HCT0 whole entry, looked up): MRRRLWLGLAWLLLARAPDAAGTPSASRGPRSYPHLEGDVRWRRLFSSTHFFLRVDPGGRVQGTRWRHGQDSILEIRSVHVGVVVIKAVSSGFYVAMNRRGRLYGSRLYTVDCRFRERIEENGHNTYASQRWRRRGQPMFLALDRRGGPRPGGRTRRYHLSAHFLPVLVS
Beta2AR agonist: beta2AR agonists driving receptor internalization, primary screen, cell-based, FAP fluorogen, flow cytometry; Beta-2 adrenergic receptor (Homo sapiens), P07550; Am2.2-beta2AR cells; reference of the scale not given here; response, % (no concentration beside the values); hit rate 0.43% among 340,000;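 active = response above a set limit, near 3 SD of response in nonfluorescent compounds, cut at about 42% in these data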;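 note: stock transfer was 100 nL into about 11 µL; a reference agonist was the positive control; negative values mostly stem from fluorescent compounds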
An asterisk follows results filed as active; i = inactive; x = no result given.

SMILES | Ecoli growth | LANA-H2B inh | HNF4A DNA FP | UCH37 DUB inh | ALR H2O2 inh | FGF22 binding | Beta2AR agonist
O=C(Nc1nc2ccccc2[nH]1)NC1CCCCC1 | 0.683 | -6.4 | 0.5 | 1.0 | -2.6 | i | -5.0
CCOC(=O)c1c(-n2cnnn2)sc2c1CCCC2 | 0.636 | 3.1 | -0.8 | -9.5 | -10.8 | i | 3.0
O=C(Nc1ccc(Cl)cc1Cl)c1ccc2ncsc2c1 | 0.687 | -1.2 | 4.6 | -3.8 | -5.7 | i | -2.7
CCOC1(OCC)N=C(N)C2(C#N)C(c3ccc(NC(C)=O)cc3)C12C#N (centres undefined) | x | 1.5 | 3.4 | x | 22.1 | x | -4.5
CCC1(CC)NC(=O)N(CC(=O)OCC(=O)c2cc(C)c(C)cc2C)C1=O | 0.678 | x | -2.4 | 3.7 | x | i | -3.7
O=C(Nc1c2c(nn1-c1ccc(F)cc1)CS(=O)(=O)C2)c1ccc(S(=O)(=O)N2CCOCC2)cc1 | 0.638 | -1.6 | 1.8 | 2.0 | 1.6 | i | -9.9
COc1ccc(CNC2CCCc3ccccc32)c(OC)c1 (centres undefined) | 0.701 | -2.5 | -4.2 | 4.8 | -5.3 | i | 1.6
O=C(CC1C(=O)NCCN1Cc1ccccc1C(F)(F)F)NC1CCCCCC1 (centres undefined) | 0.685 | -0.5 | 4.2 | -1.5 | 3.5 | i | 0.9
CCCC(CCC(=O)Nc1ccc(C(=O)OC)cc1)C(=O)O (centres undefined) | 0.661 | 4.8 | -0.8 | 3.1 | 2.0 | x | 2.2
O=C(CCc1ccccc1)NNC(=S)NC(=O)c1ccc(Cl)cc1 | 0.654 | 0.2 | x | -0.2 | 98.5* | x | x
CC(C)N(C)S(=O)(=O)c1ccc(NC(=O)C2=COCCO2)cc1 | 0.648 | -2.1 | -4.7 | 0.5 | -1.4 | i | 0.5
CC(=O)c1cccc(NCC(=O)Nc2cc(S(=O)(=O)N3CCCCC3)ccc2C)c1 | 0.722 | 3.6 | -1.0 | -0.3 | 3.3 | i | 10.4
Cc1ccc(/C=C2/NC(=O)N(c3ccccc3)C2=O)o1 | 0.67 | -1.4 | 0.6 | 4.4 | -12.7 | x | 9.7
O=S(=O)(Nc1ccc(-c2csc(-c3ccccc3)n2)cc1)c1ccccc1 | 0.723 | 4.7 | 6.4 | 4.1 | -6.3 | x | -2.9
Cc1ccc2c(c1)[C@H]1[C@H](CO2)[C@H](c2ccccc2)[C@]2(C)C(=O)Nc3ccc(Br)cc3C(=O)N12 | x | 3.0 | 1.3 | 3.8 | -3.7 | i | 0.6
CC(C)C(C)(C#N)NC(=O)CSc1nc2scc(-c3ccc(F)cc3)c2c(=O)n1Cc1ccccc1 (centres undefined) | 0.722 | 0.1 | -0.4 | 2.0 | 19.8 | x | 3.9
O=c1ccc(-c2ccc(S(=O)(=O)Nc3ccc(F)cc3)s2)n[nH]1 | 0.706 | -1.5 | -0.2 | 2.9 | -2.7 | i | 5.6
C/C(COc1ccccc1)=N\NC(=O)c1nnn(-c2nonc2N)c1CSc1ccccc1 | x | 13.3 | 2.7 | x | -3.5 | i | 5.3
Cc1cc2cc(CNC(=O)Nc3cccc(Cl)c3)ccc2n1C | 0.722 | -2.5 | -12.0 | 4.3 | -2.3 | i | 3.2
NC(=O)c1ccc(NC(=O)C2CC(=O)N(c3ccc4c(c3)OCCO4)C2)cc1 (centres undefined) | 0.659 | -1.4 | -1.3 | 0.2 | -4.2 | i | 1.4
CCOC(=O)c1cc2sccc2n1CC(=O)O | 0.65 | 1.7 | -1.5 | 2.1 | -3.8 | i | -2.7
O=C(CNc1cccc2ccccc12)c1ccc([N+](=O)[O-])cc1 | 0.674 | -1.4 | -0.4 | -2.5 | 5.2 | x | 6.4
CC(C)(C)NS(=O)(=O)c1cccc(S(=O)(=O)c2cccc(S(=O)(=O)NC(C)(C)C)c2)c1 | 0.707 | 3.8 | x | 4.2 | x | x | x
CN1CCCC(OC(=O)c2ccccc2Br)C1 (centres undefined) | 0.672 | -1.6 | -0.4 | 5.6 | 1.7 | i | 4.8
CCC(C)NC(=O)c1ccc(CSc2nc3ccncc3n2Cc2ccc(F)cc2)cc1 (centres undefined) | 0.701 | -0.3 | 1.9 | 1.5 | 15.2 | i | -8.6
SMILES | Ecoli growth | LANA-H2B inh | HNF4A DNA FP | UCH37 DUB inh | ALR H2O2 inh | FGF22 binding | Beta2AR agonist
CCOc1ccccc1NC(=O)COC(=O)c1cccc(-c2ccc(OC(C)=O)cc2)c1 | 0.692 | 0.3 | 4.4 | 1.1 | -12.3 | i | 3.3
O=C(COC(=O)COc1ccccc1[N+](=O)[O-])Nc1cccc(Br)c1 | 0.603 | 0.4 | 2.3 | 2.5 | -1.5 | x | -3.4
C=CCn1c(C)cc(C(=O)COc2ccc(C)nc2[N+](=O)[O-])c1C | 0.717 | 4.7 | 0.4 | 3.0 | 1.8 | x | -7.9
CCCC1=C(C(=O)OCC)C(c2ccc(OC)c(CSc3ccccn3)c2)C(C#N)=C(N)O1 (centres undefined) | 0.661 | -2.8 | -2.4 | 0.4 | -3.3 | x | -7.8
CCn1c2ccccc2c2cc(NC(=O)C(C)Oc3ccc(OC)cc3)ccc21 (centres undefined) | 0.782 | -4.9 | 2.0 | 2.9 | -6.8 | x | 7.1
Cc1ccc(S(=O)(=O)Nc2cccc(-c3ccc(N4CCCCCC4)nn3)c2)cc1 | 0.722 | -3.2 | 0.4 | 0.7 | 1.3 | i | -1.7
COc1ccc2c(c1)SCC/C2=C\CN1C(=O)CCC1=O | 0.689 | -2.7 | 0.9 | -1.4 | -13.8 | i | -16.6
Cc1cc(Cl)ccc1Oc1ccc(C(N)=O)cc1[N+](=O)[O-] | 0.694 | -3.2 | -1.5 | 0.4 | -2.0 | x | -3.5
O=C(Oc1ccc2c(c1)C(=O)c1ccccc1CO2)c1ccccc1 | 0.71 | 4.3 | 1.2 | 2.0 | 2.7 | x | -3.4
NC(=O)CCn1nc(-c2ccccc2)c2ccccc2c1=O | 0.709 | -3.1 | -0.4 | 2.4 | -8.2 | x | 1.5
CCOC(=O)c1cc(-c2cccs2)nn1CCC#N | 0.697 | 3.8 | 3.7 | 3.2 | -4.1 | x | 8.7
O=C(NCc1cccnc1)C1c2ccccc2C(=O)N1Cc1ccccc1 (centres undefined) | 0.716 | -4.6 | -2.9 | 5.1 | x | i | 7.0
Cn1c(=O)[nH]c(=O)c2c1nc(Br)n2Cc1ccccc1Cl | 0.716 | -3.5 | 2.4 | 11.4 | -0.9 | x | -1.6
Cc1ccsc1/C=N/N1CCN(c2ccccc2)CC1 | x | 2.5 | -0.3 | x | 12.8 | i | 1.8
N#CC(C#N)=Cc1ccc(OCC(=O)N2CCOCC2)cc1 | x | 0.8 | 1.0 | x | x | i | 2.9
CCOc1cc(C2/C(=C(\O)c3cc(C)ccc3C)C(=O)C(=O)N2CCN(C)C)ccc1O (centres undefined) | 0.74 | 0.5 | -3.8 | 6.1 | 20.7 | x | -5.2
CCOc1ccc(-n2c(SCC(=O)Nc3ccc(OC)cc3)nc3sc4c(c3c2=O)CCN(C)C4)cc1 | 0.666 | 1.3 | -1.4 | 0.9 | 98.6* | i | -5.4
CN(CC1CCOCC1)C(=O)c1ccc2nc(Cc3cccc(Cl)c3)oc2c1 | 0.641 | 5.9 | -3.3 | 1.2 | 9.6 | i | 3.4
COCCN=C1N[C@@H](c2ccccc2)C(C(=O)OC)=C(C)N1Cc1ccccc1 | x | 3.9 | -2.2 | -3.8 | -18.5 | i | 1.7
O=C1/C(=C/c2ccccc2F)SC(=S)N1CC(=O)N1CCCCC1c1cccnc1 (centres undefined) | 0.74 | -6.2 | 5.7 | 8.0 | 2.4 | i | -6.0
O=C(Nc1nccs1)c1cccc(S(=O)(=O)N2CCCC2)c1 | 0.68 | -4.1 | -1.7 | 0.5 | 2.0 | i | -2.2
CS(=O)(=O)N(CC(=O)N/N=C/c1ccccc1C(=O)O)c1cccc(Cl)c1Cl | x | 0.6 | -3.5 | x | -9.4 | i | 9.6
Cc1c(CNC(=O)c2cnn3c2NC(c2ccccc2)CC3C(F)(F)F)cnn1C (centres undefined) | 0.657 | 2.8 | 0.0 | 5.9 | -6.9 | i | -5.4
CN(C)c1nc(N)ncc1-c1ccc(Oc2ccccc2)cc1 | 0.679 | 2.3 | -1.7 | -9.2 | 0.3 | i | -1.4
O=C(NNC(=O)c1csc(N2CCOCC2)n1)c1ccc(Cl)nc1 | 0.647 | -0.8 | 3.8 | 2.4 | -3.0 | i | 2.7

An excerpt taken from the entries so far, as a working copy:
SMILES | Ecoli growth | LANA-H2B inh | HNF4A DNA FP | UCH37 DUB inh | ALR H2O2 inh | FGF22 binding | Beta2AR agonist
CCOc1ccccc1NC(=O)COC(=O)c1cccc(-c2ccc(OC(C)=O)cc2)c1 | 0.692 | 0.3 | 4.4 | 1.1 | -12.3 | i | 3.3
O=C(COC(=O)COc1ccccc1[N+](=O)[O-])Nc1cccc(Br)c1 | 0.603 | 0.4 | 2.3 | 2.5 | -1.5 | x | -3.4
C=CCn1c(C)cc(C(=O)COc2ccc(C)nc2[N+](=O)[O-])c1C | 0.717 | 4.7 | 0.4 | 3.0 | 1.8 | x | -7.9
CCCC1=C(C(=O)OCC)C(c2ccc(OC)c(CSc3ccccn3)c2)C(C#N)=C(N)O1 (centres undefined) | 0.661 | -2.8 | -2.4 | 0.4 | -3.3 | x | -7.8

Next part
SMILES | Ecoli growth | LANA-H2B inh | HNF4A DNA FP | UCH37 DUB inh | ALR H2O2 inh | FGF22 binding | Beta2AR agonist
O=C(O)C1CC1C(=O)Nc1cc(F)ccc1F (centres undefined) | 0.658 | -3.5 | 1.1 | -2.5 | -17.4 | i | -1.5
CCOc1ccccc1N1CC(C(=O)N(Cc2nnc(-c3ccccc3Cl)o2)C2CC2)CC1=O (centres undefined) | 0.696 | 4.7 | 2.5 | -4.9 | -2.0 | i | 5.2
O=C(O)c1cccc(Cn2cc(Br)cn2)c1 | 0.664 | 0.1 | 1.9 | 1.3 | -4.4 | x | -1.3
CSc1nsc(SCC(=O)N2CCc3ccccc32)n1 | 0.711 | -4.7 | 0.2 | 1.7 | -15.5 | x | -5.0
O=C(O)c1cc2n(n1)C(C(F)(F)F)CC(c1ccccc1)N2 (centres undefined) | 0.726 | -0.6 | 4.4 | 5.7 | -3.1 | x | -6.4
Cc1ccccc1C(=O)Nc1nc(-c2cccnc2)cs1 | 0.668 | 3.7 | -2.7 | 2.6 | -10.3 | i | 2.5
CCc1nn(CC(=O)N2CCN(C)CC2)c(=O)c2cccn12 | 0.734 | -3.8 | 0.2 | 1.5 | -5.1 | i | -10.7
Cc1cccc(/C=N/N2CCN(c3ccccc3)CC2)c1 | x | 2.3 | -4.2 | x | 11.1 | x | 16.1
S=C(NCC1CCCO1)Nc1ccccc1 (centres undefined) | 0.707 | -3.3 | -4.7 | 2.6 | -0.4 | i | -1.0
COC(=O)c1ccc(/C=C2/SC(=S)N(CCC(=O)NCCCN3CCOCC3)C2=O)cc1 | 0.691 | -4.3 | 0.3 | 2.3 | -15.6 | i | -7.0
Cc1ccc(-n2ncc3c(=O)n(CC(=O)NC4CCCC4)cnc32)cc1C | 0.748 | 0.6 | -2.4 | 0.0 | 0.7 | x | -1.7
CCC1CCCCN1C(=S)NC(=O)c1ccc([N+](=O)[O-])cc1 (centres undefined) | 0.66 | -1.0 | -3.2 | 2.9 | -9.4 | x | 6.5
CCOc1ccccc1/C=C/c1onc(C)c1S(=O)(=O)N1CCC(C(=O)N2CCCCCC2)CC1 | 0.697 | -2.1 | -17.2 | -13.1 | -4.3 | i | 10.8
O=C(Nc1cccc(-c2nc3ncccc3o2)c1)c1ccc2c(c1)OCO2 | x | x | 2.0 | x | x | i | -6.4

Only part of the results is shown; count on the stated rates, not on these rows.
